Autofluor counter – flagged as autofluorescent in microsphere protease counterscreen. compound autofluorescence counterscreen, microsphere flow cytometry; active compounds read high. fluorescence intensity (concentration not given with the values). 360,000 tested, 3.1% active. AID 624483;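 active = at least 3 SD above the mean of all compounds, about 16000 in these data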;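 note: 100 nL of 1 mM stock went into each well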
Mtb hypoxia rep – inhibitors of hypoxia-regulated fluorescent reporter in Mycobacterium tuberculosis | M. tuberculosis hypoxia-regulated fluorescent reporter, fluorescence | fluorescence inhibition, % (no concentration beside the values) | 300,000 tested, 0.1% active;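 active = 35 to 45% if threefold the growth effect, above 45% if 1.5-fold the growth effect; inactive = the rest, general growth blockers included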;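 note: wells of about 50 µL received 100 nL stock; 0% = vehicle wells and 100% = reference inhibitor wells; whole bacteria with a GFP reporter of the hypoxia response; strong numbers were not always called active; many hits fall short of the cut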
PrP 5UTR inh – inhibition of PrP 5' UTR reporter expression. inhibition, % (concentration not given with the values). cell-based PrP 5' UTR mRNA reporter, plate reader. 340,000 tested, 0.35% active;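 active = every replicate at 50% or more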;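 note: 0 = median of the neutral control wells; tested in H4 reporter cells; numbers are from one replicate; inactives centre near -14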
Sa ugtP lethal – kills S. aureus RN4220 lacking UgtP. growth inhibition, % (no concentration beside the values). AID 1259309. 330,000 tested, 0.54% active. S. aureus RN4220 ugtP deletion, OD600 growth, 16 h; some inactives read as strong as hits;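 active = z-score under -3 and OD600 up to 0.15 on both plates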;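 note: plate controls were untreated wells for no effect and antibiotic for full effect; wells of about 80 µL received 100 nL stock; the first replicate is given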
BJeLR lethal – BJeLR cell viability loss. inhibition, % (concentration not given with the values). BJeLR (HRASV12) viability, CellTiter-Glo ATP luminescence, 48 h; reference of the scale not given here. 300,000 tested, 0.17% active;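 active = replicate mean above 50%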;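 note: 50 nL library stock added to about 25 µL; numbers are from one replicate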
RN4220 kill – kills Staphylococcus aureus RN4220; inhibition, % (no concentration beside the values); 330,000 tested, 0.33% active; S. aureus RN4220 growth, OD600, 16 h;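 active = z-score of -3 or lower and OD600 up to 0.18 on both plates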;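 note: plate controls were untreated cells for no effect and reference antibiotic for full effect; stock transfer was 100 nL into about 80 µL; one replicate is shown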
Mtb hypoxia rep growth – recorded beside Mtb hypoxia rep, whose call it bears; growth inhibition, %; measured here: M. tuberculosis growth (absorbance);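 0% = vehicle and 100% = reference antibiotic; read after six days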
Starred values were filed as active, the others as inactive; · = no result given.

The opening 3 compounds, to show the layout:
SMILES	Autofluor counter	Mtb hypoxia rep	Mtb hypoxia rep growth	PrP 5UTR inh	Sa ugtP lethal	BJeLR lethal	RN4220 kill
O=C(NCc1ccc(F)cc1)c1noc2c1CCCCC2	10547	6.5	12.6	-9.6	1.0	-12.3	-0.7
Cc1ccc(C(=O)O/N=C(\c2ccccc2)c2ccncc2)cc1	3991	·	·	-31.4	·	-7.1	·
O=C(CN1CCOCC1)Nc1nc2ccc(Br)cc2s1	10688	15.2	5.6	-26.8	-16.0	2.2	7.0

The list itself, from the start:
SMILES	Autofluor counter	Mtb hypoxia rep	Mtb hypoxia rep growth	PrP 5UTR inh	Sa ugtP lethal	BJeLR lethal	RN4220 kill
O=C(NCc1ccc(F)cc1)c1noc2c1CCCCC2	10547	6.5	12.6	-9.6	1.0	-12.3	-0.7
Cc1ccc(C(=O)O/N=C(\c2ccccc2)c2ccncc2)cc1	3991	·	·	-31.4	·	-7.1	·
O=C(CN1CCOCC1)Nc1nc2ccc(Br)cc2s1	10688	15.2	5.6	-26.8	-16.0	2.2	7.0
Cc1nn(C)c(C)c1NC(=O)/C(C#N)=C\N(C)C	3200	9.7	-2.0	-4.4	7.4	3.2	3.5
CC(/C=C/c1ccccc1)=NNc1nc(C)cc(C)n1	·	-0.4	0.5	·	1.1	·	2.9
CCOc1ccc(CCNC(=O)COC(=O)C2CCN(S(=O)(=O)c3ccc(C)c(C)c3)CC2)cc1OCC	6081	4.7	2.4	-13.1	0.0	-7.6	1.3
O=C(CSc1nnnn1-c1cccc2ccccc12)Nc1ccc(N2CCOCC2)c(Cl)c1	16201*	5.3	2.8	-7.9	12.6	15.3	5.5
C[C@]12CCC(=O)C=C1CCC1C2CC[C@@]2(C)C1CC[C@]2(C)O (stereo not given in full)	4059	4.3	2.0	-9.0	6.2	·	1.7
C=CCN(c1ccc(C(=O)Nc2ccc3c(c2)OCO3)cc1)S(C)(=O)=O	4692	-2.5	-8.2	-11.4	-1.4	0.5	0.9
CC(C)C[C@H](NC(=O)c1nc[nH]c1C(=O)N1CCNCC1)C(=O)OCc1ccccc1	4069	·	·	-13.4	·	-2.2	·
O=C(NNC(=O)c1ccc2ncccc2c1)c1ccc(Cl)cc1	4281	-6.5	-1.2	-1.9	6.5	-28.4	5.1
CCOC(=O)C1CCN(C(=O)CCC(=O)NNc2nc3ccccc3c3nc(C)nn23)CC1	5615	0.4	7.9	-4.6	4.6	6.8	1.8
COc1ccccc1C=NNC(=O)c1ccc(-c2ccccc2)cc1	·	-16.0	-12.0	·	4.0	·	4.3
O=S(=O)(c1ccc2oc(=S)[nH]c2c1)N1CCCCC1	5469	-0.4	-3.1	-30.2	3.8	2.1	5.4
CCCCCC1CC(COc2ccccc2)OC1=O (stereo not given)	3715	10.4	7.5	-18.5	12.9	-6.6	0.4
COc1cc2c(cc1OC)C(c1ccccc1)N(C(=O)CSCC(=O)O)CC2 (stereo not given)	4419	14.3	6.8	-10.3	3.4	-0.3	3.6
O=C(O)c1cccc(S(=O)(=O)Nc2ccccc2-c2ccccc2)c1	4656	5.2	1.5	-0.4	-0.9	-10.9	0.7
N#CC1=C(N)N(c2ccccc2)C2=C(C(=O)CCC2)C1c1ccccc1 (stereo not given)	3585	15.6	13.4	-22.3	-1.3	-6.7	1.5
COc1cc(OC)cc(-c2nc(SCC(=O)Nc3ccccc3F)n[nH]2)c1	5518	8.8	2.9	-12.6	9.8	-2.7	0.4
COc1ccc(CCNC(=S)Nc2cccc3ccccc23)cc1	2703	-8.4	4.0	-31.9	6.7	3.0	5.5
Cc1ccc(S(=O)(=O)Nc2nc(C)c(C(=O)Nc3ccccc3)s2)cc1	2232	-5.6	2.7	-21.9	6.3	5.0	1.9
O=C(c1ccc2snnc2c1)N1CCOCC1	10739	8.7	2.7	-62.8	1.3	-3.4	2.0
COc1ccc(NC(=O)CSC2CC(=O)N(c3ccc4c(c3)OCCO4)C2=O)cc1 (stereo not given)	8871	12.1	21.4	-0.7	1.2	-10.6	4.4
COc1cccc(-n2cnc3cccc(N)c32)c1	7861	4.8	-7.2	-0.7	-2.7	10.8	-1.7
COc1ccc(-c2cc(C(=O)Nc3cc(C)ccc3O)no2)cc1	3509	-7.6	-0.1	·	-0.2	-5.5	4.7
O=C(Nc1cccc(Cl)c1)Nc1sccc1-c1nc2ccccc2s1	3899	·	·	-6.2	·	-0.2	·
CCOC(=O)c1cn2c(C)cccc2n1	4826	16.1	4.2	-20.1	2.7	3.2	10.5
COc1ccc(NC(=O)N2CCCC2C(=O)NCCc2ccccc2)cc1 (stereo not given)	3918	-10.4	-6.9	-15.0	3.3	3.4	0.3
COc1cc(OC)cc(-c2c(-c3ccsc3)c3cc(Br)ccc3n2C)c1	2846	0.3	2.6	-14.6	-7.4	·	-8.0
Cc1ccc(NC(=O)NC2CC(=O)N(c3ccc4c(c3)OCCO4)C2)c(C)c1 (stereo not given)	5551	5.7	4.4	-13.3	-6.9	-6.4	1.9
Cc1cc(OCC(=O)NNC(=O)c2cccs2)ccc1Br	3807	7.7	8.1	-16.9	3.4	-2.1	1.8
COC(=O)N/N=C\c1cc2c(cc1Br)OCO2	4636	·	·	-9.5	·	-11.0	·
CC(=O)c1ccc(NC(=O)Cn2cnc(S(=O)(=O)N3CCCCC3)c2)cc1	4964	-2.4	-2.2	3.3	1.4	-3.2	-0.5
CC(=O)OCCN(CCCn1c(-c2ccncc2)nc2ccccc21)c1nc(-c2ccc(C)cc2)cs1	3082	-3.8	4.5	-16.6	9.0	-8.0	-1.2
CN(CC(=O)Nc1ccccc1C(F)(F)F)C(=O)c1cc(Cl)nc2ccccc12	·	10.4	2.4	-9.8	0.6	0.9	1.9
CCOc1cc2[nH]c(=S)n(CCC(=O)NCc3ccc(OC)cc3)c(=O)c2cc1OCC	8292	·	·	-28.6	·	-11.4	·
O=C(NCC(=O)N1CCN(c2ccccc2O)CC1)c1ccc(Br)o1	4929	4.4	1.0	0.5	9.3	1.5	4.7
Cc1sc2nc(CSCC(=O)N(C)c3ccccc3)[nH]c(=O)c2c1C	3810	8.4	8.4	-12.1	-3.6	6.2	7.1
CCc1ccc(CN(C)Cc2nc(Cc3cccc(C(F)(F)F)c3)no2)nc1	4950	-6.9	-3.4	-26.1	-7.1	1.1	0.7
O=C(/C=C/c1ccc(OC(F)F)cc1)OCC(=O)N1CCN(C(=O)c2ccco2)CC1	2206	2.8	0.6	-16.3	-0.1	-4.3	5.2
CC(C)(C)C(=O)N1CCC(O)(CS(=O)(=O)c2ccc(Cl)c(Cl)c2)CC1	4348	-1.0	0.6	-18.2	4.1	7.7	10.0
Cc1c(C(=O)Nc2cccc(Cl)c2)oc2ccc(S(=O)(=O)N3CCC4(CC3)OCCO4)cc12	11308	1.2	7.3	-63.1	-8.6	-0.2	-1.9
Cc1oc2c(c(C)cc3oc(=O)c(CC(=O)N[C@H](C(=O)O)C(C)C)c(C)c32)c1C	4267	0.2	5.1	-10.7	1.4	-1.6	4.3
COc1ccccc1-n1c(C)nnc1SCC(=O)NCc1ccccc1	9074	-3.8	4.8	-15.5	-0.5	-5.5	5.5
O=C(Nc1nc(-c2ccc3c(c2)OCO3)cs1)C1CC1	5014	6.2	4.7	-56.0	6.0	8.4	2.5
NC(=O)Cc1nc2scc(-c3ccc(Cl)cc3)c2c(=O)[nH]1	3388	14.5	7.4	-5.5	7.4	-6.7	5.0
O=C(O)c1ccc(NCc2cccnc2)cc1	5833	15.1	2.7	-16.4	2.8	-5.3	2.1
O=C(O)CCCN1C(=O)NC2NC(=O)NC21 (stereo not given)	3120	-4.7	3.8	-12.4	0.3	-1.3	6.7

Reprinted from the results shown, 16 compounds:
SMILES	Autofluor counter	Mtb hypoxia rep	Mtb hypoxia rep growth	PrP 5UTR inh	Sa ugtP lethal	BJeLR lethal	RN4220 kill
CC(=O)c1ccc(NC(=O)Cn2cnc(S(=O)(=O)N3CCCCC3)c2)cc1	4964	-2.4	-2.2	3.3	1.4	-3.2	-0.5
CC(=O)OCCN(CCCn1c(-c2ccncc2)nc2ccccc21)c1nc(-c2ccc(C)cc2)cs1	3082	-3.8	4.5	-16.6	9.0	-8.0	-1.2
CN(CC(=O)Nc1ccccc1C(F)(F)F)C(=O)c1cc(Cl)nc2ccccc12	·	10.4	2.4	-9.8	0.6	0.9	1.9
CCOc1cc2[nH]c(=S)n(CCC(=O)NCc3ccc(OC)cc3)c(=O)c2cc1OCC	8292	·	·	-28.6	·	-11.4	·
O=C(NCC(=O)N1CCN(c2ccccc2O)CC1)c1ccc(Br)o1	4929	4.4	1.0	0.5	9.3	1.5	4.7
Cc1sc2nc(CSCC(=O)N(C)c3ccccc3)[nH]c(=O)c2c1C	3810	8.4	8.4	-12.1	-3.6	6.2	7.1
CCc1ccc(CN(C)Cc2nc(Cc3cccc(C(F)(F)F)c3)no2)nc1	4950	-6.9	-3.4	-26.1	-7.1	1.1	0.7
O=C(/C=C/c1ccc(OC(F)F)cc1)OCC(=O)N1CCN(C(=O)c2ccco2)CC1	2206	2.8	0.6	-16.3	-0.1	-4.3	5.2
CC(C)(C)C(=O)N1CCC(O)(CS(=O)(=O)c2ccc(Cl)c(Cl)c2)CC1	4348	-1.0	0.6	-18.2	4.1	7.7	10.0
Cc1c(C(=O)Nc2cccc(Cl)c2)oc2ccc(S(=O)(=O)N3CCC4(CC3)OCCO4)cc12	11308	1.2	7.3	-63.1	-8.6	-0.2	-1.9
Cc1oc2c(c(C)cc3oc(=O)c(CC(=O)N[C@H](C(=O)O)C(C)C)c(C)c32)c1C	4267	0.2	5.1	-10.7	1.4	-1.6	4.3
COc1ccccc1-n1c(C)nnc1SCC(=O)NCc1ccccc1	9074	-3.8	4.8	-15.5	-0.5	-5.5	5.5
O=C(Nc1nc(-c2ccc3c(c2)OCO3)cs1)C1CC1	5014	6.2	4.7	-56.0	6.0	8.4	2.5
NC(=O)Cc1nc2scc(-c3ccc(Cl)cc3)c2c(=O)[nH]1	3388	14.5	7.4	-5.5	7.4	-6.7	5.0
O=C(O)c1ccc(NCc2cccnc2)cc1	5833	15.1	2.7	-16.4	2.8	-5.3	2.1
O=C(O)CCCN1C(=O)NC2NC(=O)NC21 (stereo not given)	3120	-4.7	3.8	-12.4	0.3	-1.3	6.7

(list continues)
SMILES	Autofluor counter	Mtb hypoxia rep	Mtb hypoxia rep growth	PrP 5UTR inh	Sa ugtP lethal	BJeLR lethal	RN4220 kill
CC1CCCCN1CCCNC(=O)c1ccc(NC(=O)C2=CSCCO2)cc1 (stereo not given)	5728	-5.5	2.0	2.3	5.4	-0.2	2.3
O=C(NCCOCCNC(=O)OCc1ccccc1)OCc1ccccc1	4464	8.5	13.8	-23.4	6.5	-2.2	2.6
CS(=O)(=O)c1ccc(Cl)c(NC(=O)COC(=O)c2cccc(S(=O)(=O)N3CCCC3)c2)c1	6079	-9.2	1.5	-24.3	0.0	-9.4	-2.5
Cc1cc(-c2nnc(SCC(=O)Nc3cccc(F)c3)n2N)n[nH]1	5307	7.2	9.0	-26.6	6.0	0.9	3.6
CCc1cc2c(C)cc(=O)oc2cc1Oc1ncccc1[N+](=O)[O-]	·	10.1	5.4	·	7.5	2.1	3.4
CC(C)=C(NC(=O)c1ccco1)C(=O)NCCc1nc2ccccc2[nH]1	2936	2.0	-6.0	-23.3	1.4	12.7	7.4
CC(=O)C1=C(C)Nc2ncnn2C1c1ccccc1F (stereo not given)	3810	-1.7	-3.5	-5.3	2.3	-2.7	2.2
Cc1cc(C)cc(N(CC(=O)NC2CCCC2)C(=O)CNC(=O)c2ccco2)c1	4648	13.8	4.3	-19.8	2.2	0.8	3.4
CC(=O)Nc1scc(-c2ccccc2)[n+]1-c1ccc(C)cc1	3408	1.3	3.3	-4.1	23.3	-0.7	4.5
COC(=O)c1c(NC(=O)c2ccccc2)sc(C(=O)c2ccccc2)c1C	2809	-1.8	11.5	-11.3	15.7	3.9	35.3
CSc1nc(-c2ccccc2)c(C#N)c(=O)n1C	2893	5.4	10.3	-3.1	9.0	6.6	5.5
Cc1ccc(CCNC(=O)c2cc(S(=O)(=O)N3CCOCC3)cn2C)cc1	5869	2.5	7.2	-7.4	1.1	-2.2	0.9
O=C(Cc1ccc(-c2ccccc2)cc1)NCCN1CCOCC1	3265	·	·	-12.3	8.1	3.5	2.8
